# ugtP null kill: growth inhibition of ugtP-null S. aureus, primary screen, RN4220 ugtP deletion, OD600; 16 h; some inactives read as strong as hits; growth inhibition, % (concentration not given with the values); 0.54% of 330,000 active; AID 1259309, 2017;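 active means z-score under -3 and OD600 up to 0.15 on both plates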;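 further: plate controls were untreated wells for no effect and antibiotic for full effect; wells of about 80 µL received 100 nL stock; the first replicate is given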
# Sa RN4220 lethal: growth inhibition of S. aureus RN4220, primary screen, OD600; inhibition, % (test concentration not listed); 16 h; AID 1259311, 2017; 0.33% of 330,000 active;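 active means z-score of -3 or lower and OD600 up to 0.18 on both plates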;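 further: plate controls were untreated cells for no effect and reference antibiotic for full effect; stock transfer was 100 nL into about 80 µL; one replicate is shown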
# PrP 5UTR inh: inhibition of PrP 5' UTR reporter expression. cell-based PrP 5' UTR mRNA reporter, plate reader. inhibition, % (no concentration beside the values). 0.35% of 340,000 active;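 active means every replicate at 50% or more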;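 further: 0 = median of the neutral control wells; tested in H4 reporter cells; numbers are from one replicate; inactives centre near -14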
# BJeLR viability: MLPCN primary cell-based screen for lethality selective to Ras in HRASV12 cells; BJeLR (HRASV12) viability, CellTiter-Glo ATP luminescence, 48 h; reference of the scale not given here; inhibition, % (concentration not given with the values); 0.17% of 300,000 active;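 active means replicate mean above 50%; inconclusive means above 50% but judged a plate artefact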;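 further: 50 nL library stock added to about 25 µL; numbers are from one replicate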
# Autofluor counter: counter-screen for toxin protease inhibitors: compound fluorescence; fluorescence intensity (no concentration beside the values); compound autofluorescence counterscreen, microsphere flow cytometry; stronger effect = higher value; AID 624483; 3.1% of 360,000 active;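 active means at least 3 SD above the mean of all compounds, about 16000 in these data; inconclusive means too few beads counted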;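 further: 100 nL of 1 mM stock went into each well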
# Mtb hypoxia inh: PubChem AID 1159583; M. tuberculosis hypoxia-regulated fluorescent reporter, fluorescence; fluorescence inhibition, % (no concentration beside the values); 0.1% of 300,000 active;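 active means 35 to 45% if threefold the growth effect, above 45% if 1.5-fold the growth effect; inactive means the rest, general growth blockers included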;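 further: wells of about 50 µL received 100 nL stock; 0% = vehicle wells and 100% = reference inhibitor wells; whole bacteria with a GFP reporter of the hypoxia response; strong numbers were not always called active; many hits fall short of the cut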
# Mtb hypoxia inh growth: recorded beside Mtb hypoxia inh, whose call it bears; growth inhibition, %; measured here: M. tuberculosis growth (absorbance);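 0% = vehicle and 100% = reference antibiotic; read after six days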
# The depositor's hits bear a star; u = inconclusive; x = no result given; & = joins results of further samples.
SMILES,ugtP null kill,Sa RN4220 lethal,PrP 5UTR inh,BJeLR viability,Autofluor counter,Mtb hypoxia inh,Mtb hypoxia inh growth
O=C(c1ccc(N2CCOCC2)cc1[N+](=O)[O-])N1CCOCC1,4,3.9,-24,1,3428,7,-4
Cc1ccc(S(=O)(=O)N/N=C/c2cc([N+](=O)[O-])ccc2O)cc1[N+](=O)[O-],x,x,-10,-2,2089,x,x
COc1ccc(C(OC(=O)c2ccco2)C(=O)NC(C)(C)C)cc1 (stereo not given),0,4.0,-21,8,4559,4,0
O=C(COC(=O)CCCN=C1NS(=O)(=O)c2ccccc21)NC(=O)NC1CCCC1,6,3.3,-9,-3,4029,10,1
CCC(=O)c1ccc(CCCCCC(=O)O)s1,9,-0.8,-5,3,5614,x,x
CO/N=C(/CS(=O)Cc1ccccc1Cl)c1ccc(Cl)cc1Cl (stereo not given),x,x,-22,-7,13141,x,x
O=C(NCCOc1ccccc1)c1ccccc1,13,4.0,2,-10,8426,23,19
COc1ccccc1C(=O)NNC(=O)Cc1ccccc1,5,0.3,2,4,3797,2,-5
CCCCC1OC23CCCCC2C(C#N)(C(=N)O3)C1(C#N)C#N (stereo not given),-8,-2.1,-19,2,3031,17,16
COCCCNC(=S)NN=Cc1ccc2ccccc2c1,-12,4.7,x,x,x,-1,-1
O=C(c1cccs1)N1CCN(C(=O)C2CCCO2)CC1 (stereo not given),-5,4.9,-20,13,19685*,10,7
CCOC(CNC(=O)C(=O)NCC(c1ccco1)N1CCN(c2ccc(OC)cc2)CC1)OCC (stereo not given),3,1.7,4,-2,6020,-1,1
COc1ccccc1N(C)S(=O)(=O)c1ccc(C)c(C(=O)NCc2ccccn2)c1,0,2.1,-27,x,x,9,1
CC(Oc1ccc(Cl)cc1Cl)C(=O)Nc1ccc(N2CCN(C)CC2)cc1 (stereo not given),27,3.5,-22,0,9528,15,17
COc1ccc(S(=O)(=O)/C(C#N)=C/Nc2cccc(OC)c2)cc1,4,-3.0,1,-4,3809,-1,8
CSc1nc(-c2ccco2)nn1C(=O)CCc1ccccc1,5,1.6,-19,x,22731*,5,9
Cn1c(=O)c2c(nc(SCC(=O)N3CCCCCC3)n2C)n(C)c1=O,-2,0.9,-5,-6,4182,5,17
O=C(COc1ccc(S(=O)(=O)Nc2ccccc2)cc1)N1CCOCC1,0,0.8,-28,9,3512,x,x
O=C(c1ccc(S(=O)(=O)N2CCCCC2)cc1)N(c1ccccn1)C1CCCCC1,9,4.2,-6,-2,4169,10,8
O=C(O)c1cc(Cl)c(Cl)cc1C(=O)Nc1cccnc1,3,3.7,x,5,x,18,1
CCOc1ccc(CN(C)C(=O)CNC(=O)c2cc(OC)c(OC)c(OC)c2)cc1,15,-3.6,-16,-3,3019,15,8
COc1ccc([C@H](C)NC[C@H](O)c2ccc(O)c(NC=O)c2)cc1,x,x,0,7,4674,x,x
CCc1ccc(S(=O)(=O)n2c(C)nc3ccccc32)cc1,3,0.5,-12,-2,3785,15,-2
O=C(NCc1ccco1)c1cc(-c2cccs2)on1,7,7.5,-64,15,9727,18,23
Nc1cccc2c1C(=O)N(C(=O)/C=C/c1cccc(Br)c1)C2=O,-5,5.0,-6,10,3535,7,0
Cc1ccccc1NC(=S)N(CCN(C)C)C(C)c1cccnc1 (stereo not given),6,9.1,-2,14,4643,-5,-6
COc1ccccc1C(=O)C1Nc2ccccc2-c2nnc(SC)nc2O1 (stereo not given),-6,2.7,-6,9,21854*,1,-1
NC(=O)c1cccc2cc3ccccc3cc12,1,4.3,-22,4,u,-1,-6
O=C(NCCCN1CCOCC1)C1CCC(=O)N1CCc1ccccc1 (stereo not given),3,0.3,-8,0,6176,4,5
O=C(NCc1ccccc1Br)c1ccco1,-1,2.4,-24,-6,9808,x,x
O=C(NC(=S)Nc1cnc2ccccc2c1)c1ccccc1,2,4.6,-55,1,4460,6,9
COc1ccc(C=NNC(=O)c2ccn[nH]2)cc1COc1ccc([N+](=O)[O-])c(C)c1,-7,12,x,x,x,-7,6
COc1ccc(S(=O)(=O)N2CCN(C3CCCCCCC3)CC2)cc1,19&3,4.6&2.3,-9&-13,0,4094&4293,-1,-2
COc1ccc(C(=O)N2CCN(CCc3ccccn3)CC2)cc1,6,1.3,10,0,2953,1,-6
O=C(O)c1ccc(S(=O)(=O)NC2CC2)cc1,11,5.0,-12,-9,5219,11,12
CCOCCOC(=O)c1[nH]c2c(c1C)C(=O)CC(c1cccs1)C2 (stereo not given),10,3.3,65*,65*,3500,13,3
CN1CCN(CC#CC2(O)CCCCC2)CC1,11,3.6,-9,0,7281,7,-2
Cc1cc(=O)oc2cc(OC(C)C(=O)NC3CCCC3)ccc12 (stereo not given),15,7.5,-5,1,2940,11,4
CCC(=O)Nc1nonc1-c1nc2ccccc2n1Cc1ccc(Cl)c(Cl)c1,5,3.5,-4,x,5464,9,-11
COC(=O)c1cc(C(O)(C(=O)OC)C(F)(F)F)c(/N=C/N(C)C)s1 (stereo not given),x,x,-2,-9,6521,x,x
O=C(Nc1ccc(CN2CCOCC2)cc1)c1cccs1,-3,4.7,-70,-9,22111*,5,11
CCCCCn1c(=O)[nH]c2cc(C(=O)NCCCN3CCC(C)CC3)ccc2c1=O,12,0.1,-10,5,8872,9,11
Cc1nc2ccc(NC(=O)c3cc(S(=O)(=O)N4CCOCC4)ccc3C)cc2s1,-6,-7.7,-13,9,2936,0,11
Cc1nc(SCC(=O)NC2CCS(=O)(=O)C2)c2c(C)c(C)sc2n1 (stereo not given),1,3.1,-2,x,8597,-6,1
O=C(CCCOC(=O)c1ccc(O)cc1)c1ccccc1,6,9.9,-23,x,3813,15,6
CCOC(=O)N/N=C(\c1ccccc1)C(O)c1ccccc1 (stereo not given),x,x,-9,10,4452,x,x
CN1CCN(C2=Cc3ccccc3Sc3cc(F)c(F)cc32)CC1,-13,-15,-27,3,4631,12,9
Cc1ccc(-c2cc(-c3ccccc3)nc(NN=Cc3cccnc3)n2)cc1,-16,9.3,x,x,x,1,2
CCOc1ccc(NS(=O)(=O)c2cc(Cl)ccc2OC)cc1,12,1.2,-3,7,3297,9,4
N=c1n(CCOc2ccccc2)c2ccccc2n1CCN1CCOCC1,-3,1.9,-19,9,2690,x,x

# Remaining list, next part:
SMILES,ugtP null kill,Sa RN4220 lethal,PrP 5UTR inh,BJeLR viability,Autofluor counter,Mtb hypoxia inh,Mtb hypoxia inh growth
COC(=O)c1ccccc1NC(=O)Cc1ccccc1OC,-4,2.6,-2,-4,8788,3,6
CC(Sc1nc(-c2ccccc2)cc(C(F)(F)F)n1)C(=O)N1CCCC1 (stereo not given),11,-0.5,-24,-4,6211,9,8
CCOC(=O)N1CCN(c2c(NCCCN(C)c3ccccc3)c(=O)c2=O)CC1,-21,8.4,-22,-1,13071,-5,9
COc1ccc(C(=O)NC(=S)SCC(=O)O)cc1,1,3.9,-22,-18,4392,-5,1
C=CCNC(=O)c1ccc(-c2ccc([N+](=O)[O-])cc2)o1,x,x,-16,2,2459,x,x
Cc1ccc(C(=O)N2CCN(C3c4cccc5cccc(c45)C3NS(=O)(=O)c3ccccc3)CC2)cc1 (stereo not given),-6,7.3,-32,-2,3418,-3,4
CCCC=C(CCC)C(NS(=O)(=O)c1cccc2cccnc12)c1ccc(C(=O)OC)cc1 (stereo not given),19,11,x,x,x,10,-8
CCCc1cc(=O)oc2cc(OCc3nn[nH]n3)ccc12,-5,2.0,-13,-1,10539,2,1
CC1=C(Nc2ccc(C(=O)O)cc2)C(=O)c2ccccc2C1=O,-5,42,-9,12,3506,15,9
O=C(/C=C/c1ccccc1)N/C(=C\c1ccco1)C(=O)O,5,2.9,-30,0,4431,8,-5
CC(=O)C1C(c2ccc3ncccc3c2)NC(=O)NC1(O)C(F)(F)F (stereo not given),1,1.6,-19,-9,22750*,0,5
CC(=O)c1cc(C(=O)Nc2ccc3ccccc3c2)c(C)o1,4,1.7,-6,-1,3155,-6,-9
C#Cc1cccc(NC(=O)c2ccc3c(c2)C(=O)N(Cc2cccnc2)C3=O)c1,-14,-5.2,-8,-14,5978,3,-2
CC1(C)CN=c2s/c(=C\c3ccc(Cl)cc3)c(=O)n2C1,x,x,-8,0,4759,x,x
Cc1cc(/C=C2\SC(=S)NC2=O)c(C)n1-c1ccc(O)cc1,18,12,-23,-3,5053,7,10
O=C1C=C(c2ccccc2)OC2(CCCC2)O1,4,6.0,21,-1,8714,10,8
O=C(CN1C(=O)NC2(CCCCCC2)C1=O)Nc1ccccc1[N+](=O)[O-],2,2.1,-9,x,3894,3,7
Cc1cc(C)cc(NC(=S)NC(=O)Cc2ccccc2)c1,71,-2.7,-18,-4,4726,12,-7
CCCOC(=O)c1ccc(NC(=O)/C=C/c2cccs2)cc1,-18,5.8,-82,-8,2389,-6,6
COc1ccc(OC)c(NC(=O)CCCc2ccccc2)c1,3,2.4,-10,12,4199,10,4
CCOC(=O)c1c(N=CN(C)C)c2cc([N+](=O)[O-])cnc2n1C,-3,8.5,-9,7,4186,6,-4
Cc1cc(C)c2c(C)nn(-c3ccccc3)c2n1,2,26,-26,-11,3126,x,x
COC(=O)CCC(=O)NC(=S)Nc1sc(C)c(C)c1C(N)=O,x,x,67*,31,2476,x,x
COc1ccccc1N(CC1CO1)S(=O)(=O)c1ccccc1 (stereo not given),1,4.4,0,-18,5856,12,-2
COc1cc(OC)c(NC(=O)CC(=O)Nc2cc(Cl)c(OC)cc2OC)cc1Cl,7,4.1,-20,-2,3411,3,3
CCN1CCN(C(=S)NC(=O)c2cc(OC)c(OC)c(OC)c2)CC1,7,4.0,-6,x,6579,4,3
CCC(C)(NC(=O)Cc1c[nH]c2ccccc12)C(=O)NC1CCCCC1 (stereo not given),12,3.9,2,9,2669,7,6
CC1CC(=O)N(CC(=O)Nc2ccc3c(c2)OCCO3)c2ccccc2S1 (stereo not given),-3,-1.8,-19,1,16421*,3,16
Cc1ccc(-c2cc(C(=O)N/N=C/C=C/c3ccccc3)n[nH]2)s1,x,x,-30,0,2624,x,x
O=C(NN=CCCc1ccccc1)C1CCCCC1,-4,7.2,x,x,x,9,-4
CCOC(=O)C1=C(C)NC2(O)c3ccccc3C(=O)C12O (stereo not given),3,-0.3,-2,0,4858,x,x
COc1cc(C(=O)NCCSc2ccc(F)cc2)cc(OC)c1OC,6,1.0,-17,10,2953,8,1
Cc1cc([N+](=O)[O-])nn1CC(=O)NCc1cccs1,8,-0.7,5,0,2549,x,x
CC(c1nnnn1C1CCCCC1)N(Cc1ccccc1)Cc1cccnc1 (stereo not given),-10,-6.7,1,2,2854,16,6
CCOC(=O)C1(Cc2ccccc2C(F)(F)F)CCN(C2CCN(C(C)C)CC2)CC1,4,0.2,-13,x,5152,12,18
CN(C(=S)Nc1ccc(Oc2ccccc2)cc1)c1ccc(O)cc1,8,-4.2,-8,2,2472,3,6
CC(C)[C@H](NS(=O)(=O)c1ccccc1)C(=O)Nc1nccs1,-2,-1.5,x,x,3752,1,6

# Assay outcomes: PubChem, several laboratories
